VACV Venus inh – vaccinia inhibition (Venus reporter); Vaccinia virus Venus reporter expression, fluorescence; Potency, µM (series often up to 36.5 µM), inactives show at the highest dose activity change, negative = inhibition, actives largely listed as inhibitors; hit rate 0.46% among 330,000; active means well fitted inhibition curve with a large enough effect; inconclusive means small, poorly fitted or top-dose-only effect; inactive means no such curve, though single readings can be large or run the other way; tested in A549 cells; also: nearly all actives have a fitted effect of over 30% in size; inactives centre near -10
Vaccinia mCherry – inhibitors of vaccinia virus infection (mCherry reporter signal); Vaccinia virus mCherry reporter infection, fluorescence; about a quarter of the inactives have no number; Potency, µM (titrated, usually from 36.5 µM), for the others: at the highest dose activity change, negative = inhibition, actives largely listed as inhibitors; hit rate 0.63% among 310,000; AID 720579; active = well fitted inhibition curve with a large enough effect; inconclusive = small, poorly fitted or top-dose-only effect; inactive = no such curve, though single readings can be large or run the other way; tested in A549 cells; also: nearly all actives have a fitted effect of over 35% in size; inactives centre near -10
An asterisk follows results filed as active; & = joins results of further samples. % is scaled to controls: 0 for no effect and ±100 for the full control effect; potency is read from the fitted curve at half-maximal effect.

Screening CCOCCCNC(=O)C(c1ccccc1)N(Cc1cccs1)C(=O)CNC(C)=O (stereo not given) returned VACV Venus inh -12% and Vaccinia mCherry -1%.
O=C(Nc1cccc(C2OCCCO2)c1)c1cccs1 was read as VACV Venus inh -12% and Vaccinia mCherry -15%.
`CN1c2ccsc2/C(=N/Nc2ccccc2)CS1(=O)=O` gave VACV Venus inh -10% and Vaccinia mCherry -23%.
COc1ccccc1N1CCN(C(=O)C(F)F)CC1 was read as VACV Venus inh -7% and Vaccinia mCherry -8%.
`Cc1cc2nc(-c3cccc(Br)c3)c(Cc3ccsc3)n2c(C)c1Br` gave VACV Venus inh -5% and Vaccinia mCherry 4%.
Screening O=S1(=O)CC(N2CCN(CCO)CC2)CN1Cc1cn(Cc2cccc(Cl)c2)nn1 (stereo not given) returned VACV Venus inh 2% and Vaccinia mCherry -10%.
`CC(NC(=O)c1ccccc1)C(=O)N/N=C/c1ccccc1` (stereo not given) gave VACV Venus inh -12% and Vaccinia mCherry -18%.
For O=c1cc(O)c2sc(Nc3ccc(Cl)c(F)c3)nc2[nH]1 the results were VACV Venus inh 8% and Vaccinia mCherry inconclusive.
`CC1CCN(C(=O)c2cc(-c3ccc(Cl)cc3)on2)CC1` gave VACV Venus inh 1% and Vaccinia mCherry -11%.
For COCCNC(=O)C1CCN(c2nc3ccccc3nc2C(F)(F)F)CC1 the results were VACV Venus inh -9% and Vaccinia mCherry 0%.
Screening CCNc1nc(-c2sc(NC(=O)C(C)(C)C)nc2C)c(-n2cc(-c3ccccc3)nn2)s1 returned VACV Venus inh inconclusive and Vaccinia mCherry inconclusive.
CCCC(=O)NC(=S)Nc1ccc(S(=O)(=O)Nc2ccc(OCC)cc2)cc1 was read as VACV Venus inh -21% and Vaccinia mCherry inconclusive.
Screening COCCNC(=S)N1CCN(c2cccc(C(F)(F)F)c2)CC1 returned VACV Venus inh -4% and Vaccinia mCherry -12%.
O=C(Nc1ccc(OCc2ccccc2)cc1)Nc1nnc([C@@H]2C[C@H](O)[C@@H](CO)O2)s1 was read as VACV Venus inh -16% and Vaccinia mCherry -9%.
`O=C(Nc1cccc(S(=O)(=O)N2CCCCC2)c1)c1ccccc1NS(=O)(=O)c1ccc(F)cc1` gave VACV Venus inh inconclusive and Vaccinia mCherry inconclusive.
For COc1ccccc1CCNC(=O)Cc1cccs1 the results were VACV Venus inh -5% and Vaccinia mCherry -7%.
`COc1ccc(NC(=O)CCNS(=O)(=O)c2cccc3nsnc23)cc1OC` gave VACV Venus inh -8%&-2% and Vaccinia mCherry -2%&-8%.
For CC[C@]12c3[nH]c4ccc(Cl)cc4c3CCN1C(=O)[C@@H](CC(=O)NCc1ccc(OC)c(OC)c1)C[C@@H]2C(=O)N1CCN(C(=O)c2ccco2)CC1 the results were VACV Venus inh -17% and Vaccinia mCherry inactive.
COc1cccc(CNC(=O)CCc2ccc(OC)c(OC)c2)c1 was read as VACV Venus inh -27% and Vaccinia mCherry -8%.
N#Cc1ccsc1NC(=O)CSc1ncn[nH]1 was read as VACV Venus inh -9% and Vaccinia mCherry -8%.
Screening Cc1noc(C)c1C(=O)N(CC(=O)NC1CCCC1)Cc1ccccc1F returned VACV Venus inh 0% and Vaccinia mCherry inactive.
Screening COc1cccc(NC(=O)Cn2c(=O)n(-c3ccc(CC(=O)NCC4CCCO4)cc3)c(=O)c3ccccc32)c1 (stereo not given) returned VACV Venus inh -3% and Vaccinia mCherry -3%.
For C/C(=N\NC(=S)NCCc1ccccc1)c1ccc(Cl)cc1 the results were VACV Venus inh -4% and Vaccinia mCherry -15%.
Screening CCOc1cc(N2CCOCC2)c(OCC)cc1NC(=O)COC(=O)[C@@H]1CCCN1S(=O)(=O)c1ccccc1F returned VACV Venus inh -8% and Vaccinia mCherry -14%.
`Cc1ccc(NC(=O)C2(C)CCN2C(=O)CC(c2ccccc2)c2ccccc2)cc1` (stereo not given) gave VACV Venus inh -18% and Vaccinia mCherry -15%.
Cc1ccc(NC(=O)CS(=O)CC(=O)N(c2ccccc2F)C(C)C(=O)NC2CCCC2)cc1 (stereo not given) was read as VACV Venus inh -24% and Vaccinia mCherry -22%.
For CC(=O)Nc1cc([N+](=O)[O-])ccc1OCc1ccccc1 the results were VACV Venus inh -14% and Vaccinia mCherry -10%.
C#CC(C)(CC)NC(=O)Cn1nnc(-c2ccc(S(C)(=O)=O)cc2)n1 (stereo not given) was read as VACV Venus inh -26%.
COc1ccc([C@H]2/C=C\CN(Cc3ccc(N(C)C)cc3)[C@@H](C)C(=O)N2Cc2ccc(F)cc2)cc1 was read as VACV Venus inh -24% and Vaccinia mCherry inconclusive.
COC(=O)C1=C(c2cccc(OC)c2OC)C[C@@H]2CC[C@H]1N2C(=O)NCc1cccc2ccccc12 was read as VACV Venus inh -11% and Vaccinia mCherry -2%.
CCOc1ccc(CCN2C(=S)N([C@@H](CC(C)C)CN3CCCC3CN3C(=S)NC[C@@H]3CC(C)C)C[C@@H]2CC(C)C)cc1 (stereo not given in full) was read as VACV Venus inh -16% and Vaccinia mCherry inactive.
Cc1ccccc1NC(=O)Nc1nc(C(N)C2CCCCC2)cs1 (stereo not given) was read as VACV Venus inh inconclusive and Vaccinia mCherry -20%.
Screening Cc1cc(C)nc(NC(=O)/C=C/c2ccc(Cl)cc2Cl)c1 returned VACV Venus inh -5% and Vaccinia mCherry 2%.
For O=S(=O)(NCC(c1ccco1)N1CCOCC1)c1ccc(Cl)cc1 (stereo not given) the results were VACV Venus inh -7%&1% and Vaccinia mCherry -18%&-10%.
Cc1nn(C)c(C(=O)Nc2ccn(Cc3ccccc3F)n2)c1[N+](=O)[O-] was read as VACV Venus inh -2% and Vaccinia mCherry -13%.
For Cc1cccc(C)c1OCC(O)CN1CCC(CN2C(=O)c3cccc4cccc(c34)C2=O)CC1 (stereo not given) the results were VACV Venus inh -11% and Vaccinia mCherry -17%.
CNc1ccccc1-c1nc2ccccc2n(C)c1=O was read as VACV Venus inh -4% and Vaccinia mCherry -9%.
`CCOc1ccc(-n2c(SCC(=O)Nc3ccc(OC)cc3)nc3sc4c(c3c2=O)CCN(C)C4)cc1` gave VACV Venus inh -19% and Vaccinia mCherry -12%.
Screening CCN1C(=O)/C(=C2\C=Cc3ccccc3N2CC)SC1=S returned VACV Venus inh -4% and Vaccinia mCherry -14%.
`CN(Cc1ccccc1)C(=O)c1[nH]cnc1C(=O)Nc1ccccc1` gave VACV Venus inh -25% and Vaccinia mCherry -9%.
For O=C(C1CC1)N1CCN(Cc2ccccc2)CC1 the results were VACV Venus inh -2% and Vaccinia mCherry inactive.
For Cc1ccc(-n2nc3c(=O)n(CCCC(=O)NCc4ccccc4C)nc(C)c3c2C)cc1 the results were VACV Venus inh -28% and Vaccinia mCherry inconclusive.
CN1/C(=C\C(=O)CSc2nncn2C)C(C)(C)c2ccccc21 was read as VACV Venus inh -13% and Vaccinia mCherry -19%.
Cc1ccc(-c2ccc(CO)o2)cc1N was read as VACV Venus inh -6% and Vaccinia mCherry inconclusive.
Screening CCCCOc1ccc(/C=C2/Sc3ccccc3C2=O)cc1 returned VACV Venus inh -7% and Vaccinia mCherry -13%.
`COc1cc(NC(=O)CCc2c(C)[nH]c(=O)c(C#N)c2C)cc(OC)c1` gave VACV Venus inh -5% and Vaccinia mCherry inactive.
O=C(NN=Cc1ccccc1Cl)c1ccccc1 was read as VACV Venus inh -16% and Vaccinia mCherry inactive.
Screening Clc1cccc(CSc2nc(NCCc3ccccc3)c3ccccc3n2)c1 returned VACV Venus inh -20% and Vaccinia mCherry -10%.
COc1cccc(S(=O)(=O)N(C)C[C@@H]2OCc3cnnn3CCCC(=O)N([C@@H](C)CO)C[C@H]2C)c1 was read as VACV Venus inh -7% and Vaccinia mCherry -12%.
Screening O=C(C1CCCN1S(=O)(=O)c1cccc2nsnc12)N1CCCCC1 (stereo not given) returned VACV Venus inh 1% and Vaccinia mCherry -3%.
For O=C1CN(C(=S)Nc2ccccc2Cl)CCN1 the results were VACV Venus inh -17% and Vaccinia mCherry inactive.
For CC1CCN(C(=O)C2CCCN(S(=O)(=O)c3cccc4nsnc34)C2)CC1 (stereo not given) the results were VACV Venus inh -8% and Vaccinia mCherry inactive.
COc1cc2c(C(=O)O)c(C)n(-c3ccccc3)c2c2ccccc12 was read as VACV Venus inh 0% and Vaccinia mCherry inconclusive.
`CSc1ccc(/C=C/C(=O)Nc2ccccc2)cc1` gave VACV Venus inh -12% and Vaccinia mCherry 0%.
`CC(C)CN(C(=O)COc1cccc(-n2cnnn2)c1)C1CCS(=O)(=O)C1` (stereo not given) gave VACV Venus inh -1% and Vaccinia mCherry -1%.
Screening Brc1ccc(OCCOc2cccc3cccnc23)cc1 returned VACV Venus inh -10% and Vaccinia mCherry -21%.
`CC1=C(C(=O)OCc2ccccc2)C(c2ccc3ccccc3c2)NC(=O)N1CCCCCC(=O)O` (stereo not given) gave VACV Venus inh 2% and Vaccinia mCherry -11%.
CCN(C(=O)CN1CCN(c2ccc(OC)cc2)CC1)c1c(N)n(Cc2ccccc2)c(=O)[nH]c1=O was read as VACV Venus inh -12% and Vaccinia mCherry -1%.
Screening COC(=O)CC1C(=O)NCCN1C(=O)CSc1nnc(Nc2ccc(C)cc2)s1 (stereo not given) returned VACV Venus inh -4% and Vaccinia mCherry inactive.
For Cn1c(=O)c(C(=O)CN2CC(=O)Nc3ccccc32)c(N)n(Cc2ccccc2)c1=O the results were VACV Venus inh -8% and Vaccinia mCherry -1%.
`O=P(O)(C(O)c1ccccc1)C(O)c1ccccc1` (stereo not given) gave VACV Venus inh -6% and Vaccinia mCherry -2%.
Cc1ccccc1NC(=O)Cn1c(=O)n(Cc2ccccc2)c(=O)c2c(C)c(C)sc21 was read as VACV Venus inh -4%&-7% and Vaccinia mCherry -14%&-2%.
CCOc1cc(/C=N/NC(N)=O)cc(Br)c1OCc1ccccc1F was read as VACV Venus inh -7% and Vaccinia mCherry -17%.
O=Cc1cn(CC(=O)N2CCCc3ccccc32)c2ccccc12 was read as VACV Venus inh -10% and Vaccinia mCherry -14%.
O=C(Cc1ccccc1)N1CCN(c2ccccc2F)CC1 was read as VACV Venus inh -8% and Vaccinia mCherry -17%.
`COc1ccc(-c2c(C)cc3oc(=O)cc(-c4ccccc4)c3c2C)cc1F` gave VACV Venus inh -20% and Vaccinia mCherry inconclusive.
Screening O=S(=O)(c1cccc(Cl)c1)c1nnn2c1nc(NCc1ccc3c(c1)OCO3)c1sccc12 returned VACV Venus inh inconclusive and Vaccinia mCherry inconclusive.
Screening COc1cc(CN2CCC(N3CCC(C(=O)N4CCCC4)CC3)CC2)cc2c1OCO2 returned VACV Venus inh -26% and Vaccinia mCherry -3%.
Screening CCn1c(=O)c2sccc2n2c(CCC(=O)Nc3ccc(F)cc3)nnc12 returned VACV Venus inh -8% and Vaccinia mCherry 2%.
`COc1ccc(-c2ccc3oc(-c4ccc(OC)cc4)c(C#CCCO)c3c2)cc1` gave VACV Venus inh inconclusive and Vaccinia mCherry -12%.
For O=C1OCCC1Sc1nc2ccccc2s1 (stereo not given) the results were VACV Venus inh -6%.
Screening CCC(=O)NC(Nc1c(C)n(C)n(-c2ccccc2)c1=O)C(Cl)(Cl)Cl (stereo not given) returned VACV Venus inh 2% and Vaccinia mCherry 0%.
Screening O=C(NCC1CCCO1)c1cc2c([nH]c3ccccc32)c(-c2cccc(Cl)c2)n1 (stereo not given) returned VACV Venus inh inconclusive and Vaccinia mCherry inconclusive.
Screening Cc1ccccc1C(=O)Nc1cccc(OCc2cc(=O)n3c4c(sc3n2)CCCC4)c1 returned VACV Venus inh -6% and Vaccinia mCherry -2%.
Screening CCOC(=O)C1Sc2ccccc2NC1=O (stereo not given) returned VACV Venus inh -20% and Vaccinia mCherry -9%.
For CC(C)CC(=O)N1CCN(S(C)(=O)=O)CC1 the results were VACV Venus inh -16% and Vaccinia mCherry inactive.
Screening COc1ccc(-c2ccc(NC(=O)c3ccc(Br)o3)cc2)nn1 returned VACV Venus inh 3% and Vaccinia mCherry -12%.
Screening Cn1cc(CN2CCC(n3nccc3NC(=O)c3ccc4c(c3)OCO4)CC2)cn1 returned VACV Venus inh -16% and Vaccinia mCherry -3%.
For COc1ccc(CCNC(=O)C(=O)NCCOc2ccccc2Cl)cc1OC the results were VACV Venus inh -16% and Vaccinia mCherry inactive.
Screening COc1ccccc1NC(=O)c1c(NC(=O)COc2ccccc2)sc2c1CCCCC2 returned VACV Venus inh -5% and Vaccinia mCherry -8%.

Of the compounds above, 5 contain a furan ring, fused or not:
For CC[C@]12c3[nH]c4ccc(Cl)cc4c3CCN1C(=O)[C@@H](CC(=O)NCc1ccc(OC)c(OC)c1)C[C@@H]2C(=O)N1CCN(C(=O)c2ccco2)CC1 the results were VACV Venus inh -17% and Vaccinia mCherry inactive.
For O=S(=O)(NCC(c1ccco1)N1CCOCC1)c1ccc(Cl)cc1 (stereo not given) the results were VACV Venus inh -7%&1% and Vaccinia mCherry -18%&-10%.
Cc1ccc(-c2ccc(CO)o2)cc1N was read as VACV Venus inh -6% and Vaccinia mCherry inconclusive.
`COc1ccc(-c2ccc3oc(-c4ccc(OC)cc4)c(C#CCCO)c3c2)cc1` gave VACV Venus inh inconclusive and Vaccinia mCherry -12%.
Screening COc1ccc(-c2ccc(NC(=O)c3ccc(Br)o3)cc2)nn1 returned VACV Venus inh 3% and Vaccinia mCherry -12%.

Of the compounds above, 2 have a cyano group.
N#Cc1ccsc1NC(=O)CSc1ncn[nH]1 was read as VACV Venus inh -9% and Vaccinia mCherry -8%.
`COc1cc(NC(=O)CCc2c(C)[nH]c(=O)c(C#N)c2C)cc(OC)c1` gave VACV Venus inh -5% and Vaccinia mCherry inactive.

High-throughput results from PubChem.
